# Bioassay records: PubChem BioAssay, Southern Research Specialized Biocontainment Screening Center
# Mtb betalactam: beta-lactam sensitization of Mtb H37Rv | inhibition, % at 25 µM | hit rate 0.27% among 330,000 | M. tuberculosis H37Rv growth with meropenem, percent inhibition; hits of this screen are not shown here;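 active = about 74% or more and at least 40 points above the plate without the antibiotic, then above 30% in a dose series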;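 also: growth measured after seven days incubation then overnight dye step; 0% = bacteria only wells and 100% = bacteria with antibiotic; twin plates without the antibiotic show which effects depend on it; some results filed as inactive read as strong as hits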
# Active calls of the source: *. This is a subset (hit frequency here may not be typical).
SMILES,Mtb betalactam
Cc1ccccc1NC(=O)CC1C(=O)Nc2ccccc2N1CC(=O)N(C)C1CCS(=O)(=O)C1 (stereo not drawn),4
O=C(Nc1cc(S(=O)(=O)N2CCOCC2)ccc1N1CCCCC1)c1ccccc1,7
COc1ccc2oc(C(=O)OC(C)C(=O)Nc3ccc(N4CCOCC4)cc3)c(C)c2c1 (stereo not drawn),-6
O=C(Cn1cc(C(F)(F)F)ccc1=O)N1CCCc2ccccc21,-3
NS(=O)(=O)c1ccc(CNC(=O)c2ccc(S(=O)(=O)NCc3ccco3)cc2)cc1,-1
Cc1ccc(C(C)NC(=O)COC(=O)C2=COCCO2)cc1C (stereo not drawn),63
O=C(Nc1ccc(F)c(Cl)c1)C1CC(=O)N(Cc2ccco2)C1 (stereo not drawn),-9
Cc1ccc(Cn2nc(C)c(C(=O)NCC(c3ccc(F)cc3)N3CCOCC3)c2Cl)cc1 (stereo not drawn),0
C[C@H]1CN([C@@H](C)CO)C(=O)c2cccc(NC(=O)c3nc4ccccc4s3)c2O[C@H]1CN(C)C(=O)Nc1ccc(F)cc1,71
COc1ccc(-c2cn(CCN)c(-c3ccncc3)n2)cc1,0
C[C@H](CO)N1C[C@H](C)[C@@H](CN(C)C)Oc2c(NC(=O)C3CC3)cccc2C1=O,8
CS(=O)(=O)c1cccc(C(=O)OCC(=O)NC(=O)Nc2ccccc2F)c1,0

# Structures from the list above that contain nitrogen in an aromatic ring (four):
SMILES,Mtb betalactam
O=C(Cn1cc(C(F)(F)F)ccc1=O)N1CCCc2ccccc21,-3
Cc1ccc(Cn2nc(C)c(C(=O)NCC(c3ccc(F)cc3)N3CCOCC3)c2Cl)cc1 (stereo not drawn),0
C[C@H]1CN([C@@H](C)CO)C(=O)c2cccc(NC(=O)c3nc4ccccc4s3)c2O[C@H]1CN(C)C(=O)Nc1ccc(F)cc1,71
COc1ccc(-c2cn(CCN)c(-c3ccncc3)n2)cc1,0

# Ordered by number of heavy atoms (largest number first): part of the list above.
SMILES,Mtb betalactam
Cc1ccc(Cn2nc(C)c(C(=O)NCC(c3ccc(F)cc3)N3CCOCC3)c2Cl)cc1 (stereo not drawn),0
COc1ccc2oc(C(=O)OC(C)C(=O)Nc3ccc(N4CCOCC4)cc3)c(C)c2c1 (stereo not drawn),-6
NS(=O)(=O)c1ccc(CNC(=O)c2ccc(S(=O)(=O)NCc3ccco3)cc2)cc1,-1
